Screening data as filed in PubChem BioAssay.
Mtb betalactam: beta-lactam sensitization of Mtb H37Rv; inhibition, % at 25 µM; AID 434955; M. tuberculosis H37Rv growth with meropenem, percent inhibition; hits of this screen are not shown here; 330,000 compounds, 0.27% hits;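 active = about 74% or more and at least 40 points above the plate without the antibiotic, then above 30% in a dose series; inconclusive = first-round hits that could not be retested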;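 also: growth measured after seven days incubation then overnight dye step; 0% = bacteria only wells and 100% = bacteria with antibiotic; twin plates without the antibiotic show which effects depend on it; some results filed as inactive read as strong as hits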
YopH PTP inh: blocks Yersinia enterocolitica YopH tyrosine phosphatase; fluorescence Ex485/Em525; inhibition, %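 (about 10 µM by stock and volumes)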; 140,000 compounds, 0.16% hits; AID 898;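 active = inhibition of 50% or more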;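 also: controls were vehicle for no effect and minimum signal wells for full effect; inactives centre near -20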
RecA splice inh: inhibitors of M. tuberculosis RecA intein splicing. cell-free RecA intein splicing, fluorescence. 290,000 compounds, 0.75% hits. P9WHJ3. inhibition, %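 (about 9 µM by stock and volumes)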; in the data active = inhibition above about 30%; inconclusive = no clear call, values can overlap the other calls;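 also: 0% = vehicle wells and 100% = reference inhibitor control wells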
Target sequence (P9WHJ3 whole entry, looked up, canonical isoform): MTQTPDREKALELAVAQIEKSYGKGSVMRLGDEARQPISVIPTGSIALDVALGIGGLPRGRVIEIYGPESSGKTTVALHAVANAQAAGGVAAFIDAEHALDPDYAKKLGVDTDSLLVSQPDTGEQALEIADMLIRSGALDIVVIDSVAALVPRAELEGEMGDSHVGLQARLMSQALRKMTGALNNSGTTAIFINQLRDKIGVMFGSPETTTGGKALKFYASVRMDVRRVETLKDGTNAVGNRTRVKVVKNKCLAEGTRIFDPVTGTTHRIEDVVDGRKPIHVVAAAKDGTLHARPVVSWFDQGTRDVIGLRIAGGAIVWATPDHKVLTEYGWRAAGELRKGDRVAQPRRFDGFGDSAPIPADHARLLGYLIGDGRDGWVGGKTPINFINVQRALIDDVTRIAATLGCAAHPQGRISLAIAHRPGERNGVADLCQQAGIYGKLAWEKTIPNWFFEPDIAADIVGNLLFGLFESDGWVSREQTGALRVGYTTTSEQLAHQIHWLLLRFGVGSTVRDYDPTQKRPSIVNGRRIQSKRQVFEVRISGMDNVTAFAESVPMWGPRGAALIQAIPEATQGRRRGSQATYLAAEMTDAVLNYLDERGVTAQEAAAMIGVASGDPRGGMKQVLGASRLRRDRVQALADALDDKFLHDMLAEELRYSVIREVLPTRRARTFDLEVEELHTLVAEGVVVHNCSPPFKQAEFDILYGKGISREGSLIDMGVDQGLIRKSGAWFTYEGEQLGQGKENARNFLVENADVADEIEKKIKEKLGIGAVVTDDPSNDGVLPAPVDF
Arbovirus anti: blocks arbovirus infection; inhibition, % at 10 µM; AID 1251; arbovirus infection cell-based antiviral screen; 200,000 compounds, 0.37% hits;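 active = inhibition from about 30%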;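 also: bluetongue infection of BSR cells; cell survival read as ATP light after 72 h; 0% = infected wells without compound and 100% = uninfected wells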
Mtb H37Rv: M. tuberculosis H37Rv growth inhibitors, H37Rv strain (AID 1626); M. tuberculosis H37Rv growth inhibition; higher % means a stronger effect; inhibition, % at 10 µM, or IC50 in µM where a hit was titrated; 220,000 compounds, 0.95% hits;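 active = confirmed in a dose series; inconclusive = inhibition above 80% but not taken into the dose series; inactive = below 80% or under 30% at every dose of the series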;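 also: bacteria incubated seven days before Alamar blue readout; 0% = bacteria only wells and 100% = bacteria with antibiotic wells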
Arbovirus anti repeat: recorded beside Arbovirus anti, whose call it bears; inhibition, %; measured here: 10K subset replicate screen; many hits read low in the repeat;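 first of two repeat runs on a subset; 0% = infected and 100% = uninfected wells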
Active calls of the source: *; ? = inconclusive; / = no result given. Only part of the results is shown (hit frequency here may not be typical).

SMILES	Mtb betalactam	YopH PTP inh	RecA splice inh	Arbovirus anti	Mtb H37Rv	others
Cc1ccc(-n2c(O)c(C=Nc3ccc4c(c3)OCO4)c3ccccc3c2=O)cc1C	/	-29	1.1	-16	4%
O=c1c2ccccc2c(-c2ccc(Cl)cc2)nn1-c1ccccc1	61	-16	1.2	-5	12%
Cc1ccc(C)n1-c1ccc(C(=O)NN)s1	62	/	3.7	-14	-9%
O=[N+]([O-])c1ccccc1/C=N/OCc1ccccc1	2	/	3.3	/	/
COc1ccc(NC(=O)c2cccnc2C(=O)O)c(OC)c1	4	-14	-4.6	3	-7%
CCOC(CNC(=O)c1cccc([N+](=O)[O-])c1)OCC	3	/	-0.6	/	/
Nc1ccccc1C(=O)NCc1ccccc1	-7	-12	-2.5	7	11%
CCOC(=O)c1c(-c2ccccc2)csc1NC(=O)c1ccc(N2C(=O)CCC2=O)cc1	-1	-33	-1.4	-15	-2%
O=C(CNC(=O)c1ccco1)OCC(=O)c1ccc([N+](=O)[O-])cc1	1	/	-3.7	/	/
Cc1c(N=C2N=C(NC(=O)Nc3ccc(Cl)cc3)c3ccccc32)c(=O)n(-c2ccccc2)n1C	5	/	-17	-18	18%
O=C(COc1ccc(Cl)cc1)Nc1nc(-c2ccc(S(=O)(=O)N3CCOCC3)cc2)cs1	-3	-16	2.5	-7	1%
O=C(CN1C(=O)c2cccc3cccc(c23)C1=O)N1CCOCC1	3	/	1.2	-3	0%
O=C(CSc1nnc(COc2ccccc2)o1)Nc1ccc(F)cc1	0	/	1.0	/	/
O=S(=O)(CCc1nnc(-c2ccccc2)o1)c1ccc2ccccc2c1	-5	-24	0.6	-3	1%	Arbovirus anti repeat=11
COc1ccc2nc(NC(=O)c3ccccc3C(=O)O)sc2c1	6	/	0.0	/	/
Cc1nc2ccc(NC(=O)c3ccc(Cl)nc3)cc2s1	71	/	-20	/	37%
CN(C(=O)c1c(Br)cnn1C)C12CC3CC(CC(C3)C1)C2	/	-18	/	-2	6%
CCC(CC)C(=O)c1c[nH]c(C(=O)NCCOC)c1	-3	/	-2.2	8	2%
CCCOC(=O)COc1cc(C)cc2oc(=O)c3c(c12)CCC3	-5	-19	0.0	12	-3%	Arbovirus anti repeat=0
O=C(CCSc1ccccc1)NC(=O)COC(=O)C1CCCCC1	-5	/	-0.1	-1	4%

In the list so far, these contain a halogen.
SMILES	Mtb betalactam	YopH PTP inh	RecA splice inh	Arbovirus anti	Mtb H37Rv	others
O=c1c2ccccc2c(-c2ccc(Cl)cc2)nn1-c1ccccc1	61	-16	1.2	-5	12%
Cc1c(N=C2N=C(NC(=O)Nc3ccc(Cl)cc3)c3ccccc32)c(=O)n(-c2ccccc2)n1C	5	/	-17	-18	18%
O=C(COc1ccc(Cl)cc1)Nc1nc(-c2ccc(S(=O)(=O)N3CCOCC3)cc2)cs1	-3	-16	2.5	-7	1%
O=C(CSc1nnc(COc2ccccc2)o1)Nc1ccc(F)cc1	0	/	1.0	/	/
Cc1nc2ccc(NC(=O)c3ccc(Cl)nc3)cc2s1	71	/	-20	/	37%
CN(C(=O)c1c(Br)cnn1C)C12CC3CC(CC(C3)C1)C2	/	-18	/	-2	6%

The main list resumes, repeating the 2 entries before the break.
SMILES	Mtb betalactam	YopH PTP inh	RecA splice inh	Arbovirus anti	Mtb H37Rv	others
CCCOC(=O)COc1cc(C)cc2oc(=O)c3c(c12)CCC3	-5	-19	0.0	12	-3%	Arbovirus anti repeat=0
O=C(CCSc1ccccc1)NC(=O)COC(=O)C1CCCCC1	-5	/	-0.1	-1	4%
S=C1NC2=C(C(c3ccc(Br)cc3)N1)N1CCC2CC1 (stereo unspecified)	-7	-9	3.8	-1	-5%
COc1ccccc1/C=C/C(C)=O	0	-27	0.1	0	-1%
C(=NCCCN1CCOCC1)c1ccc2c(c1)OCO2	-2	3	2.1	-3	-2%
COc1ccc(/C=C(\C#N)C(=O)ONC2=NCCCCC2)cc1	-6	/	-2.0	-1	2%
O=C1c2ccccc2NC(c2cccc(O)c2)N1c1ccccc1 (stereo unspecified)	-10	/	-7.3	/	/
CC(=O)Nc1cccc(NC(=O)CCNC(=O)c2ccc(Cl)cc2)c1	2	/	-2.2	/	/
CSc1nnc(-c2ccc(Br)s2)n1C	-3	/	-1.0	/	15%
COc1cccc(C(C(=O)NC2CCCCC2)N(Cc2ccco2)C(=O)c2ccccn2)c1 (stereo unspecified)	-3	/	-4.7	/	/
Cc1cc(C(=O)Nc2c(C)n(C)n(-c3ccccc3)c2=O)c(C)o1	-3	28	-0.4	2	4%
CCO[C@H]1OC(C(=O)N2CCN(Cc3ccc4c(c3)OCO4)CC2)=C[C@@H](C2CC2)[C@@H]1CCCO	-19	/	2.7	1	-12%
COCCn1c(C)cc(C(=O)CSc2nncn2-c2ccccc2)c1C	-10	-42	2.7	-4	-8%
CN(c1ccc(C(=O)NCc2cccnc2)cc1)S(C)(=O)=O	-20	5	0.2	3	-5%
CCOC(=O)c1cnc2c(cnn2C)c1NCCC#N	-18	-52	-1.0	6	3%
COCCn1c(N)c(N(Cc2ccccc2)C(=O)COc2ccc(F)cc2Cl)c(=O)[nH]c1=O	-1	/	0.7	/	/
CCN(CC)S(=O)(=O)c1ccc(NC(=O)Cn2cnc3ccccc3c2=O)cc1	-8	-16	-4.0	6	2%
CCCN(C(=O)/C=C/c1ccco1)c1c(N)n(Cc2ccccc2)c(=O)[nH]c1=O	6	/	-3.9	4	5%
CNC(=S)NNC(=O)CNc1ccc(C)c(Cl)c1	76	/	-0.3	18	4%
O=[N+]([O-])c1ccc(C2=NN(CCO)C(=Nc3ccc(OC(F)(F)F)cc3)SC2)cc1	-2	/	8.8	/	0%
COC(=O)C1=C(c2ccc(S(C)(=O)=O)cc2)C[C@@H]2CC[C@H]1N2C(=O)NC1CCCCC1	-9	/	1.3	/	-5%
CN(CC(=O)Nc1cccc(F)c1)C(=O)c1ccccc1CCc1ccccc1	-11	/	2.1	/	/
CCc1nnc(NC(=O)c2cc(-c3ccccc3)nn2-c2ccccc2)s1	97	-19	1.5	19	19%
CN(C(=O)COc1coc(CN2CCN(c3ccccc3)CC2)cc1=O)c1ccccc1	2	/	-0.5	/	/
Cc1ccc(NS(=O)(=O)c2ccc(C(=O)N3CC(C)OC(C)C3)cc2)cc1 (stereo unspecified)	-7	/	-3.8	/	/
CC(C)(C)NC(=O)C(c1ccc(F)cc1)N(C(=O)CCC(=O)Nc1ccccn1)C1CCCC1 (stereo unspecified)	5	/	1.4	/	/
CCOc1cc(CN2CCN(C(=O)c3ccco3)CC2)ccc1OC	7	-27	0.0	4	-14%
Cc1nc(-c2ccc(NC(=O)c3ccc(Br)o3)cc2)cs1	71	/	1.9	/	/
Cc1ccc(NS(=O)(=O)N2CCOCC2)c(C)c1	-1	/	4.5	/	/
Cc1ccc(OCC(=O)NNC(=O)C2CCN(c3ncccn3)CC2)cc1	-5	-24	-0.4	4	-10%
CCc1nnc(NC(=O)CCC(=O)NC2CC2)s1	6	/	0.1	/	/
Cc1cccnc1NC(=O)c1cccc(S(=O)(=O)N2CCN(c3ccc(F)cc3)CC2)c1	3	/	-0.2	/	/
CCc1cc2c(=O)n3c(nc2s1)-c1[nH]c2ccc(OC)cc2c1CC3	9	-30	-5.0	6	14%
COc1ccc(C)cc1NC(=O)c1ccc2c(SCC(=O)O)c3c(nc2c1)CCCC3	21	/	9.9	/	/
Cc1noc(/C=C/c2ccco2)c1S(=O)(=O)N1CCC(C(=O)NC(C)c2ccccc2)CC1 (stereo unspecified)	-5	-32	2.4	3	10%
CCOC(=O)C1C(=O)N(O)CC1c1cccc(Oc2ccccc2)c1 (stereo unspecified)	-1	/	12	17	-7%
CCOc1cccc(CNc2ccc(O)cc2)c1OCc1ccc(Cl)cc1	71	-121	-13	-29	11%
CC(C)C(C)N(Cc1cccc(C(=O)O)c1)C(=O)c1ccc2ccccc2n1 (stereo unspecified)	2	/	-0.8	/	/
O=C(CNC1CCCCC1)Nc1cccc([N+](=O)[O-])c1	89	/	-0.3	/	/
CCOC(=O)c1c(NC(=O)COc2ncnc3sccc23)sc2c1CCC2	0	-9	-0.4	-3	-2%
Cc1cc2nnc(SCC(=O)NCc3cccs3)n2c(N)n1	0	-21	-1.2	6	-5%
COC(=O)CCC(=O)Nc1ccccc1C(=O)Nc1ccccc1	-10	-36	-0.8	0	-13%
CCn1c(SCC(=O)Nc2ccccc2N2CCOCC2)nnc1-c1ccccc1O	-3	-25	15	1	-1%
C/C(=N\O)c1ccc2c3ccccc3n(C)c2c1	33	-7	0.8	1	-8%
O=C(Nc1ccccc1O)c1ccc2c(c1)C(=O)N(c1ccccc1)C2=O	1	/	-1.5	/	/
CCOC(=O)c1c(C)[nH]c(C(=O)N/N=C/c2cc([N+](=O)[O-])ccc2O)c1C	2	/	6.2	/	/
CC(Sc1nc2nn(-c3ccccc3)c(=O)c-2c2n1CCCCC2)C(N)=O (stereo unspecified)	-9	-3	0.8	-5	-12%
COc1ccc(C2(C)NC(=O)N(CC(=O)Nc3cccnc3Cl)C2=O)cc1 (stereo unspecified)	?	/	0.4	/	/
O=C(Nc1ncc(Cc2ccc(C(F)(F)F)cc2)s1)c1ccc(-c2cccc([N+](=O)[O-])c2)o1	96	-14	-1.9	-16	60µM*
Nc1nc(-c2nonc2N)no1	-3	/	-1.7	9	1%
Cc1cc(Br)cc(Cl)c1OC(=O)c1ccncc1	12	/	9.6	/	/
COc1ccc2c(CCNC(=O)c3ccc([N+](=O)[O-])cc3)c[nH]c2c1	-3	/	3.1	-1	-1%
COc1cccc(-n2c(SCC#N)nnc2-c2cnccn2)c1	-5	-42	-0.5	16	-9%
O=c1ccc2ccccc2o1	-2	-30	0.6	20	16%
CCOC(=O)c1cc2c(nc1NC(=S)Nc1ccccc1)CC(C)(CC)OC2 (stereo unspecified)	-7	-21	-0.9	11	2%
Cn1c(=O)oc2cc(S(=O)(=O)N3CCCC(C(=O)N4CCc5ccccc5C4)C3)ccc21 (stereo unspecified)	-1	-39	-2.6	4	0%	Arbovirus anti repeat=6
CCOC(=O)C1CCN(C(=O)C2CCC(=O)N(CC3CCCCC3)C2)CC1 (stereo unspecified)	2	/	-0.2	/	/
Cc1cccc(OCC2Cn3c(nc4c3c(=O)[nH]c(=O)n4C)O2)c1 (stereo unspecified)	-5	/	-2.1	/	/
C=C(C)COc1ccc(-c2nc(N)ncc2-c2ccc(OC)c(OC)c2)c(O)c1	1	/	3.3	/	/
O=C(CNC(=O)c1ccccc1)N/N=C/c1cn[nH]c1-c1ccccc1	0	-16	0.7	-5	8%
CC1CCN(CCOCCSc2ccc(Cl)cc2)CC1	-8	/	0.4	-27	0%
CC(C)(C)c1ccc(CCC2OCC(C[N+]3(C)CCOCC3)O2)cc1 (stereo unspecified)	-6	/	-0.4	/	-2%

Arranged by length of the SMILES (lowest first): 4 of the compounds above.
SMILES	Mtb betalactam	YopH PTP inh	RecA splice inh	Arbovirus anti	Mtb H37Rv	others
O=c1ccc2ccccc2o1	-2	-30	0.6	20	16%
C=C(C)COc1ccc(-c2nc(N)ncc2-c2ccc(OC)c(OC)c2)c(O)c1	1	/	3.3	/	/
Cn1c(=O)oc2cc(S(=O)(=O)N3CCCC(C(=O)N4CCc5ccccc5C4)C3)ccc21 (stereo unspecified)	-1	-39	-2.6	4	0%	Arbovirus anti repeat=6
O=C(Nc1ncc(Cc2ccc(C(F)(F)F)cc2)s1)c1ccc(-c2cccc([N+](=O)[O-])c2)o1	96	-14	-1.9	-16	60µM*

Further entries:
SMILES	Mtb betalactam	YopH PTP inh	RecA splice inh	Arbovirus anti	Mtb H37Rv	others
C#CCNC(=O)C1=C[C@@H](c2ccc(Br)cc2)C[C@@H](OCCCCO)O1	-2	/	5.8	-2	4%
Cc1ccccc1NS(=O)(=O)c1cc(C(=O)NCCC2=CCCCC2)ccc1Cl	-6	-32	11	-20	-2%
CCOc1ccc([N+](=O)[O-])cc1CNC1CCCCCCC1	-9	/	0.1	/	/
O=C1/C(=C/c2ccco2)CCc2ccccc21	11	-30	3.3	0	7%
NS(=O)(=O)c1ccc(NC(=O)NC2CC(=O)N(c3ccc4c(c3)OCCO4)C2)cc1 (stereo unspecified)	-3	/	-3.0	/	/
CCCCNC(=O)C1CC(=O)N(C2CCCCC2)C1 (stereo unspecified)	0	-18	-0.8	0	-15%
O=C1c2ccccc2NC(c2ccco2)N1/N=C/c1ccco1 (stereo unspecified)	-1	/	1.6	-7	-4%
Cc1cccc(NC(=O)COC(=O)c2cc(C)oc2C)c1	-7	/	-0.4	-3	8%
